# Ecoli rRNA inh – inhibitors of bacterial rRNA selective over humanized ribosomes; 1.6% of 350,000 active; E. coli WT GFP vs humanized-ribosome RFP mutants, fluorescence, 24 h; stronger effect = lower value; DMSO median 0, no signal -100; GFP signal change (wild-type ribosome), % (concentration not given with the values); AID 720706;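 active = significant combined selectivity score with lowered wild-type GFP, culture density cut under 30%, mutant RFP and density less affected; inactive = any of these conditions unmet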; note: one replicate is shown; some compounds called inactive have numbers as strong as hits
# MLL AF4-AF9 inh – inhibitors of human MLL-AF4/AF9 interaction | P42568 | AlphaScreen, biotin-AF4 peptide binding to FLAG-AF9 | inhibition, % at 10 µM | 0.47% of 350,000 active;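 active = every replicate reaching a set inhibition limit, whatever the replicate mean, cut at about 25% in these data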;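 note: 0% = plate neutral control median and 100% = total signal loss; the record names both 10 and 1 µM as test concentration; the first replicate is given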
# Target sequence (P42568 whole entry, looked up): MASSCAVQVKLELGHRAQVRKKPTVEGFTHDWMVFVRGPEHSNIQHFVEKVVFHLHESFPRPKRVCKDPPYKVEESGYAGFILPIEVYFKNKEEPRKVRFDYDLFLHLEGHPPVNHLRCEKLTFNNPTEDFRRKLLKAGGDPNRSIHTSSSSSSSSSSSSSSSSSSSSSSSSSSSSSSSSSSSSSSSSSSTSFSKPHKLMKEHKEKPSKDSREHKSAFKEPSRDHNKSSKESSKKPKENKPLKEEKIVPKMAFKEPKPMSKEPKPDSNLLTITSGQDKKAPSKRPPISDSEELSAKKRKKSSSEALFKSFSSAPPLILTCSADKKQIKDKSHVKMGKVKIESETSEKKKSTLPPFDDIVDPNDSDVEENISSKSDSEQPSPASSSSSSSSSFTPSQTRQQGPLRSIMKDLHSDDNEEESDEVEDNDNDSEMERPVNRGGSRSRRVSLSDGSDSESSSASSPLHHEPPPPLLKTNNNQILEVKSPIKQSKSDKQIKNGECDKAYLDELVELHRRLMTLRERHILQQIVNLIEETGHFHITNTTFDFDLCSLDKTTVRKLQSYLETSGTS
# Ecoli rRNA inh OD600 – further read-out of Ecoli rRNA inh, marked with its call; OD600 change, %; measured here: OD600 growth;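 optical density of the mix in the first replicate; 0 = DMSO median and -100 = no signal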
# Ecoli rRNA inh RFP – second read-out of Ecoli rRNA inh, no call of its own (marks repeat the call); RFP signal change, %; measured here: RFP humanized mutant strains;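 first replicate; 0 = DMSO median and -100 = no signal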
# The depositor's hits bear a star; & = joins results of further samples.
SMILES,Ecoli rRNA inh,Ecoli rRNA inh OD600,Ecoli rRNA inh RFP,MLL AF4-AF9 inh
Cc1ccc2nc(-c3ccc(F)cc3)c(Cc3ccccc3C(F)(F)F)n2c1,-10.1,-12.8,2.4,2.0
CN1CCN(C(=O)C[C@@H]2CC[C@H]3[C@@H](COC[C@H](O)CN3Cc3cccc(-c4ccncc4)c3)O2)CC1,-0.4,5.6,-2.4,-4.4
CCCNC(=O)[C@H]1[C@H](CO)[C@H]2Cn3c(cccc3=O)[C@H]2N1CC1CC1,1.4,7.0,0.6,1.5
CC(C)NC(=O)N1[C@@H]2CN(C(=O)C3CCC3)c3ccccc3[C@@H]2[C@@H]1CO,5.1,4.5,-0.8,1.0
C[C@@H]1CCCCO[C@H](CN(C)CC2CC2)[C@H](C)CN([C@@H](C)CO)C(=O)c2cc(NS(C)(=O)=O)ccc2O1,4.1,2.1,-0.1,-7.7
O=C(NCc1nnnn1-c1ccc(F)cc1)c1ccc(S(=O)(=O)N2CCOCC2)cc1,1.1,2.6,-2.2,5.2
CN1c2ccc(-c3ccccc3)cc2[C@@H]2[C@@H](CCN2C(=O)c2ccc(F)cc2)[C@@H]1CO,-16.2,-39.6,24.7,3.1
CC=Cc1ccc2n(c1=O)C[C@H]1[C@H](CO)[C@@H](C(=O)N3CCOCC3)[C@@H]2N1CC1CCCC1 (mixture of isomers),0.4,2.3,-0.6,-0.8
C[C@H]1CN([C@@H](C)CO)C(=O)c2cccc(NC(=O)Nc3ccccc3)c2O[C@@H]1CN(C)C(=O)Nc1ccccc1,-1.6,-1.6,3.7,-1.4
CCCN(C)C[C@H]1OCCCC[C@@H](C)Oc2ccc(N(C)C)cc2C(=O)N([C@H](C)CO)C[C@@H]1C,1.2,5.7,-4.6,10.3
CC(C)NC(=O)N(C)C[C@@H]1Oc2ncc(C#CCc3ccccc3)cc2C(=O)N([C@@H](C)CO)C[C@@H]1C,3.8,14.4,-2.3,-0.6
O=C(C[C@H]1CC[C@H]2NC[C@@H](O)COC[C@@H]2O1)Nc1nccs1,2.4,-0.9,4.9,1.0
COc1ccc(C#Cc2ccc3c(c2)O[C@@H](CN(C)C)[C@@H](C)CN([C@@H](C)CO)S3(=O)=O)cc1,2.9,-20.9,28.1,13.4
COc1ccc(NC(=O)N[C@H]2CC[C@@H](CCNC(=O)CCN3CCCCC3)O[C@H]2CO)cc1,3.2,10.4,0.7,-1.6
CC1(C(=O)NCc2cccs2)CCN1C(=O)Cc1ccc(Cl)cc1Cl (configuration not stated),-4.7,-1.6,-2.7,-0.2
C[C@@H]1CN([C@H](C)CO)S(=O)(=O)c2ccc(C#CCC3CCCC3)cc2O[C@H]1CN(C)C,-58.2,-74.2,-18.0,-12.4
COC(=O)[C@H]1[C@H](CO)[C@H]2Cn3c(ccc(-c4ccccc4)c3=O)[C@H]2N1C(=O)CC1CC1,-0.8,-4.8,-3.4,0.5
COc1ccc(C(=O)Nc2ccc3c(c2)C(=O)N(C)C[C@H](OC)[C@H](C)CN(C)[C@H](C)CO3)cc1,3.6,5.8,-3.5,-1.9
OCCCNc1ncnc2c1ncn2[C@H]1CN(Cc2cccs2)C[C@@H](CO)O1,7.5,5.0,2.2,-2.2
O=C(C[C@H]1CC[C@H]2[C@@H](COC[C@@H](O)CN2C(=O)Nc2ccc(Cl)cc2)O1)NCC1CC1,-36.4,-29.9,-10.6,-0.1
C[C@H](CO)N1C[C@H](C)[C@H](CN(C)S(=O)(=O)c2ccc(Cl)cc2)OCCCC[C@H](C)Oc2ccc(NS(=O)(=O)c3ccccc3)cc2C1=O,0.3,-7.8,-0.6,-10.4
O=C(C1CC1)N1CC(=O)N2[C@H](CO)[C@H](c3ccc(-c4cccnc4)cc3)[C@H]2C1,0.7,10.5,1.6,-3.2
COCC(=O)N1[C@H](CO)[C@H](c2ccccc2)C12CN(C(=O)NC1CCCC1)C2,1.9,7.4,-0.8,-3.2
COc1ccc(S(=O)(=O)N(C)C[C@@H]2Oc3ncc(/C=C/c4ccccc4)cc3C(=O)N([C@H](C)CO)C[C@@H]2C)cc1,-2.8,5.8,0.6,7.7&1.7
C[C@H]1CCCCO[C@H](CN(C)S(=O)(=O)c2ccccc2)[C@@H](C)CN([C@@H](C)CO)C(=O)c2cc(NC(=O)Nc3ccccc3)ccc2O1,-0.2,6.1,-0.5,-1.6
C[C@H]1CCCCO[C@@H](CN(C)CC2CCCCC2)[C@@H](C)CN([C@@H](C)CO)C(=O)c2cc(NC(=O)Nc3ccccc3)ccc2O1,6.7,14.0,0.9,3.9
Cc1noc(C)c1NC(=O)Nc1ccc2c(c1)C(=O)N([C@H](C)CO)C[C@@H](C)[C@@H](CN(C)C)OCCCC[C@@H](C)O2,4.7,6.4,-2.3,-9.1
CC(C)NC(=O)Nc1ccc2c(c1)C(=O)N([C@@H](C)CO)C[C@H](C)[C@H](CN(C)C)O2,6.7,9.4,0.0,-0.7
O=C(C[C@H]1C=C[C@@H](NC(=O)c2ccccn2)[C@@H](CO)O1)NCc1cccc(F)c1,0.7,-0.2,1.3,-3.6
C[C@H]1CN([C@@H](C)CO)S(=O)(=O)c2ccc(C3=CCCCC3)cc2O[C@H]1CN(C)C(=O)CC1CC1,-9.7,-24.3,4.8,3.6
CN1C(=O)c2cc(NC(=O)NC3CCCC3)ccc2OC[C@H]2O[C@H](CC(=O)NCC3CC3)CC[C@H]21,1.8,0.8,1.7,-1.6
CCS(=O)(=O)Nc1ccc2c(c1)C(=O)N(C)[C@@H]1CC[C@H](CC(=O)NC)O[C@@H]1CO2,-1.2,0.5,2.5,-0.3
CO[C@@H]1CC[C@@H]2CCOc3ccc(C#N)cc3C(=O)N(C)C[C@@H](OC)[C@H](C)C(=O)N(C)C[C@@H]1O2,3.8,16.7,-2.9,3.5
C[C@@H]1CN([C@H](C)CO)C(=O)c2cc(NC(=O)CCCN(C)C)ccc2O[C@@H](C)CCCCO[C@@H]1CN(C)C(=O)c1ccccc1,-2.0,-7.7,-1.3,-0.3
C/C=C/c1ccc2c(c1)[C@H]1[C@H](CCN1S(=O)(=O)c1cn(C)cn1)[C@H](CO)N2,13.7,27.2,4.6,2.0
Cc1cc(=O)c2c(ccc3c(=O)cc(C)[nH]c32)[nH]1,4.4,-1.6,1.5,-1.9
O=C(C[C@@H]1C[C@@H]2c3cc(NC(=O)C4CCC4)ccc3O[C@@H]2[C@H](CO)O1)NCc1cc(F)ccc1F,-3.7,-4.0,-2.4,-1.5
CCCCN(C=O)c1c(CC)nc2ccc(C(=O)NCCc3c[nH]c4ccccc34)cn12,-9.0,-15.8,-1.2,6.0
C[C@@H]1CN([C@@H](C)CO)C(=O)Cc2cc(NC(=O)C3CC3)ccc2O[C@@H]1CN(C)S(=O)(=O)c1ccccc1,4.8,-3.4,0.8,-1.8
COc1ccc(CN(C)C[C@@H]2OCCCC[C@H](C)Oc3ccc(NC(=O)CCC(F)(F)F)cc3C(=O)N([C@@H](C)CO)C[C@H]2C)cc1,-1.4,-3.7,0.7,-1.5
Cc1ccc(S(=O)(=O)N2C[C@H](O)COC[C@H]3O[C@H](CC(=O)N[C@H]4CCN(Cc5ccccc5)C4)CC[C@@H]32)cc1,2.8,2.0,3.0,-0.8
C[C@@H]1CN([C@H](C)CO)C(=O)c2cc(C#Cc3ccccc3F)cnc2O[C@@H]1CN(C)C(=O)Cc1cccnc1,0.5,4.3,-2.9,-6.5
COc1ccc(CN2[C@@H]3CN(C(=O)C4CC4)c4ccccc4[C@@H]3[C@@H]2CO)cc1,-2.7,0.1,-3.6,-0.2
C[C@@H]1CN([C@H](C)CO)C(=O)c2cc(NS(=O)(=O)c3cn(C)cn3)ccc2O[C@@H](C)CCCCO[C@H]1CN(C)C(=O)Nc1ccc(F)cc1,-0.9,4.2,-0.8,3.3
C[C@@H]1CN([C@H](C)CO)C(=O)c2cccc(NS(=O)(=O)c3ccc(Cl)cc3)c2O[C@@H]1CN(C)Cc1ccc(-c2ccccc2)cc1,2.4,3.1,-0.3,3.4
CO[C@@H]1CN(C)C(=O)c2ccc(NC(=O)C3CCCC3)cc2OC[C@@H](C)N(Cc2ccc(F)cc2)C[C@H]1C,-0.5&5.4,-9.0&-9.0,3.9&-0.7,0.6&-3.4
CC(C)CC#Cc1ccc2c(c1)O[C@H](CN(C)C(=O)Nc1ccccc1F)[C@@H](C)CN([C@@H](C)CO)S2(=O)=O,-3.6,0.1,-0.3,5.5
C[C@H](CO)N1C[C@H](C)[C@@H](CN(C)Cc2ccc(C(=O)Nc3ccccc3N)cc2)Oc2c(NS(=O)(=O)c3ccccc3)cccc2C1=O,6.7,6.6,-2.5,1.4
C[C@@H](O)C#Cc1cnc2c(c1)C(=O)N([C@@H](C)CO)C[C@H](C)[C@H](CN(C)C(=O)Nc1ccc(C(F)(F)F)cc1)O2,2.2,7.6,-1.5,-1.4
C[C@@H]1CN([C@H](C)CO)C(=O)c2cc(-c3cccc(F)c3)cnc2O[C@H]1CN(C)C(=O)Nc1cc(F)ccc1F,-2.5,-5.0,-0.3,1.8

# Remaining list, next part
SMILES,Ecoli rRNA inh,Ecoli rRNA inh OD600,Ecoli rRNA inh RFP,MLL AF4-AF9 inh
Cc1noc(C)c1NC(=O)Nc1ccc2c(c1)C(=O)N([C@@H](C)CO)C[C@H](C)[C@H](CN(C)Cc1ccc(Oc3ccccc3)cc1)O2,5.1,2.6,-1.0,7.3
C[C@@H]1CN([C@H](C)CO)C(=O)Cc2cc(NC(=O)Nc3ccc(F)cc3)ccc2O[C@H]1CN(C)CC1CC1,-2.3,-2.7,0.0,1.6
Cc1cc(Br)cn2c(Cc3cccc(F)c3)c(-c3cccc(Br)c3)nc12,-33.5,-32.0,-2.6,-0.4
CCOC(=O)Cc1ccc(Nc2nc(NC)nc3ccsc23)cc1,-13.2,-50.2,-0.2,-3.8
COc1cccc(-c2ccc(C3[C@H]4CNC[C@@H]3N4C(=O)Nc3ccc4c(c3)OCO4)cc2)c1 (some centres not stated),-55.7&-31.9,-72.8&-55.0,-13.1&4.1,20.2
O=C(C[C@@H]1C[C@@H]2c3cc(NC(=O)C4CCOCC4)ccc3O[C@@H]2[C@H](CO)O1)NCCN1CCCCC1,0.9,3.2,-1.2,-2.2
C[C@@H]1CN([C@H](C)CO)C(=O)Cc2cc(NS(=O)(=O)c3ccc(F)cc3)ccc2O[C@H]1CN(C)C(=O)Nc1cccc2ccccc12,-1.9,3.9,0.2,1.7
C/C=C/c1cnc2c(c1)C(=O)N([C@@H](C)CO)C[C@H](C)[C@@H](CN(C)S(=O)(=O)c1ccccc1)O2,-2.8,4.5,-0.2,1.9
COc1cccc(NC(=O)N[C@H]2C=C[C@@H](CC(=O)Nc3ccc(-c4ccccc4)cc3)O[C@H]2CO)c1,-58.2,-77.1,-14.8,5.0
C[C@H](NC(=O)C[C@@H]1C=C[C@@H](NC(=O)CN2CCOCC2)[C@@H](CO)O1)c1ccccc1,4.7&6.2,3.5&12.6,0.0&3.0,1.6&-1.6

# Part of the list above, with values under each structure.
# Screens in order – Ecoli rRNA inh	Ecoli rRNA inh OD600	Ecoli rRNA inh RFP	MLL AF4-AF9 inh
> C[C@@H]1CN([C@H](C)CO)C(=O)Cc2cc(NC(=O)Nc3ccc(F)cc3)ccc2O[C@H]1CN(C)CC1CC1
    -2.3	-2.7	0.0	1.6
> Cc1cc(Br)cn2c(Cc3cccc(F)c3)c(-c3cccc(Br)c3)nc12
    -33.5	-32.0	-2.6	-0.4

# Other entries
SMILES,Ecoli rRNA inh,Ecoli rRNA inh OD600,Ecoli rRNA inh RFP,MLL AF4-AF9 inh
C[C@@H]1CN([C@@H](C)CO)C(=O)c2cc(-c3ccc(F)cc3)cnc2O[C@@H]1CN(C)C(=O)NC1CCCC1,3.5,6.4,3.2,-4.2
CCC(=O)N(C)C[C@H]1Oc2ncc(Br)cc2C(=O)N([C@H](C)CO)C[C@@H]1C,7.0,0.6,1.7,-3.6
CC(C)NC(=O)Nc1ccc2c(c1)C(=O)N([C@H](C)CO)C[C@H](C)[C@@H](CN(C)C(=O)Nc1ccc(F)cc1)O2,1.9,-3.7,0.5,-0.2
C/C=C/c1ccc2c(c1)O[C@@H](CN(C)C(=O)c1ccccc1F)[C@H](C)CN([C@H](C)CO)S2(=O)=O,-4.3,-6.4,-0.6,3.3
O=C(c1ccncc1)N1C[C@H]2[C@@H](c3ccccc31)[C@@H](CO)N2Cc1ccccc1F,0.3,5.0,3.4,-2.7
COCC(=O)Nc1ccc2c(c1)[C@H]1C[C@H](CC(=O)N3CCOCC3)O[C@H](CO)[C@H]1O2,1.4,4.7,0.2,2.4
COc1ccc(NC(=O)c2cc(-c3cc(C)cc(F)c3)n[nH]2)cc1OC,-6.9,-13.4,4.2,-7.1

# Part of the list above, reformatted.
mol	Ecoli rRNA inh	Ecoli rRNA inh OD600	Ecoli rRNA inh RFP	MLL AF4-AF9 inh
C/C=C/c1ccc2c(c1)O[C@@H](CN(C)C(=O)c1ccccc1F)[C@H](C)CN([C@H](C)CO)S2(=O)=O	-4.3	-6.4	-0.6	3.3
CC(C)NC(=O)Nc1ccc2c(c1)C(=O)N([C@H](C)CO)C[C@H](C)[C@@H](CN(C)C(=O)Nc1ccc(F)cc1)O2	1.9	-3.7	0.5	-0.2
COc1ccc(NC(=O)c2cc(-c3cc(C)cc(F)c3)n[nH]2)cc1OC	-6.9	-13.4	4.2	-7.1
O=C(c1ccncc1)N1C[C@H]2[C@@H](c3ccccc31)[C@@H](CO)N2Cc1ccccc1F	0.3	5.0	3.4	-2.7
C[C@@H]1CN([C@@H](C)CO)C(=O)c2cc(-c3ccc(F)cc3)cnc2O[C@@H]1CN(C)C(=O)NC1CCCC1	3.5	6.4	3.2	-4.2

# Screening data: PubChem, Broad Institute

# This is a subset; count on the stated rates, not on these rows.
